High-throughput results (PubChem BioAssay)
H5N1 CPE: antiviral screen in MDCK cells, H5N1 avian flu. hit rate 0.07% among 96,000. inhibition, % at 50 µM. cytopathic effect, luminescence, 72 h; active compounds read high; no value below 0 was filed and about half of the inactive calls have no number; reference of the scale not given here; in the data active = inhibition above about 25%
Numbers without * were called inactive; i = inactive. The list is partial; the hit share may differ from the screen's.

SMILES | H5N1 CPE
CCN1CCN(C(=O)C2CCN(Cc3cc(Cl)ccc3O)CC2)CC1 | i
CCS(=O)(=O)c1ccc2oc(SCC(=O)N3c4ccccc4CC3C)nc2c1 (stereo not drawn) | i
O=c1c2c(C(F)(F)F)cc(C(F)(F)F)nc2[nH]n1-c1ccccc1 | 0.2
CCOC(=O)c1ccccc1NS(=O)(=O)c1ccccc1 | i
O=C1CCC(=O)N1c1nc2n(n1)C(c1ccccc1)C=C(c1ccc(Br)cc1)N2 (stereo not drawn) | 0.2
CCOC(=O)CCSc1nc(C)c2cc(C)ccc2n1 | i
COCc1[nH]nc2c1C(c1c(F)cccc1Cl)C(C#N)=C(N)O2 (stereo not drawn) | i
CCOC(=O)c1cccnc1SCC(=O)NCc1ccccc1 | 0.5
Cn1c(=O)n(Cc2ccc(Cl)cc2)c(=O)c2c1nc1n2CCN1Cc1ccco1 | i
C1=CC2CC1CC2CN1CCN(Cc2ccccc2)CC1 (stereo not drawn) | i
O=C(COc1ccc([N+](=O)[O-])cc1)Nc1ccc(C(=O)NCc2cccnc2)cc1 | 1.6
CCOc1ccc(/C=C2/SC(=S)N(n3c(C)ccc3C)C2=O)cc1 | 16
CCCCN1C(=O)/C(=C/C=C2\N(C)c3ccccc3C2(C)C)SC1=S | i
CCN(CC(=O)NC1CCCCC1)S(=O)(=O)c1ccc(Cl)cc1 | i
Cc1cc(C)n2nc(C(=O)NCc3ccccc3)cc2n1 | i
Cc1ccc(CNc2nc3ccccc3n3cnnc23)cc1 | 0.8
Cc1ccc2occ(CN3CCN(Cc4ccccc4)CC3)c(=O)c2c1 | 0.4
CC(=O)Nc1c(S(=O)(=O)c2ccccc2)c2nc3ccccc3nc2n1Cc1ccccc1 | i
COc1ccc(C(c2nnnn2Cc2cccs2)N2CCN(c3ccccc3F)CC2)cc1 (stereo not drawn) | 6.2
Cc1nc2c(C(=O)NCc3ccccc3Cl)c[nH]n2c(=O)c1Cl | 0.5
O=C(CCN1CCN(CC(=O)Nc2ccccc2F)CC1)Nc1ccccc1F | i
Cc1cc(OC2CCCCC2)nc(-c2ccccc2O)n1 | i
Cc1ccc(-n2ncc(-c3nnc(SCC(=O)NC4CCCC4)o3)c2N)cc1C | i
CN(C)c1cccc(NC(=O)Cc2ccc(F)cc2)c1 | i
CCn1c(Cc2ccccc2)nnc1SCC(=O)Nc1nccs1 | i

4 structures already listed, sorted by length of the SMILES, highest first:
SMILES | H5N1 CPE
O=C(COc1ccc([N+](=O)[O-])cc1)Nc1ccc(C(=O)NCc2cccnc2)cc1 | 1.6
CCS(=O)(=O)c1ccc2oc(SCC(=O)N3c4ccccc4CC3C)nc2c1 (stereo not drawn) | i
CCOC(=O)c1ccccc1NS(=O)(=O)c1ccccc1 | i
C1=CC2CC1CC2CN1CCN(Cc2ccccc2)CC1 (stereo not drawn) | i

The results go on.
SMILES | H5N1 CPE
Nc1nc2c(c3c1c(=O)oc1ccccc13)CCCCC2 | 0.2
COc1c(Cl)cc(C(=O)Nc2ccc(Cl)cn2)cc1Cl | i
CC(=O)Nc1ccc(S(=O)(=O)NCCc2ccccc2)cc1 | 0.8
O=C(Nc1ccc(Cl)cn1)C1CCCN1S(=O)(=O)c1ccc(Cl)cc1 (stereo not drawn) | 1.2
CCCCNC(=S)NNC(=O)CCn1nc(C)c(Br)c1C | 0.3
O=C1NC(=O)c2c(NC(=O)C3CCCO3)cccc21 (stereo not drawn) | i
Cc1cc(C)c2nc(-c3ccccn3)cc(C(=O)Nc3cc(C)on3)c2c1 | 1.6
Cc1ccc(C(=O)NNC(=O)CSc2nnc(-c3ccncc3)n2C)cc1 | 0.7
Cc1cccc(/C=C2\CCC(=C3SCCCS3)C2=O)c1 | 0.5
O=C(NCc1cccs1)c1cc(C2CC2)on1 | 2.5
CCOC(=O)CC1NC(=O)c2ccccc21 (stereo not drawn) | i
CC(=O)N1CN(CCCn2ccnc2)Cc2c1sc1c2CCCC1 | 0.9
CC(C)CNC(=S)NC1CCCC1 | i
Cc1cc(N2CCN(C(=O)OC(C)(C)C)CC2)n2ncnc2n1 | 1.1
O=C(CSc1nc(-c2ccccc2)c(-c2ccccc2)[nH]1)Nc1nccs1 | 0.3
COc1ccccc1OCC(=O)Nc1ccccn1 | 1.9
CN(C)c1nc(NCc2ccccc2)nc(SCC(=O)Nc2ccccc2)n1 | 1.9
CCC(COC(=O)Nc1cccc(C)c1)NC(=O)OCC(C)C (stereo not drawn) | 2.2
Cc1ccc(C(=O)Nc2cnc3sc(C)nn3c2=O)cc1 | i
CCOC(=O)C(C)Oc1ccc(C2NC(=O)NC(C)=C2C(=O)Nc2ccccc2C)cc1 (stereo not drawn) | 0.7
CCOC(=O)CSc1cc(CSc2ccccc2)nc(-c2ccccc2)n1 | i
CCC1(c2ccccc2)C(=O)N(COC)C(=O)N(COC)C1=O | 0.3
O=C(CSc1ccc2c(c1)OCCO2)Nc1ccc(Br)cc1 | i
O=C(Nc1ccc(Cl)cn1)C1CCCN1S(=O)(=O)c1ccccc1 (stereo not drawn) | 0.7
CCSc1nc(-c2ccc(OC)cc2)cc(-c2ccccc2)c1C#N | i

Carrying on.
SMILES | H5N1 CPE
CCCCn1c(=O)[nH]c(=O)c2c1nc(-c1ccc(C#N)cc1)n2C1CCCC1 | 1.4
N#Cc1c(-c2cccs2)nc(SCC(=O)c2cccs2)[nH]c1=O | 1.4
Cc1cc(C)c(C(N)=O)c(NC(=O)Nc2ccccc2Cl)n1 | i
O=C(Cc1cccs1)Nc1nc2ccccc2s1 | i
COC(=O)C1=C(C)OC(N)=C(C#N)C1c1c(C)nn(-c2ccccc2)c1Cl (stereo not drawn) | i
Cc1cc([N+](=O)[O-])ccc1NCc1cccc([N+](=O)[O-])c1 | i
Cc1ccc(S(=O)(=O)c2nc(NCc3ccc4c(c3)OCO4)sc2Cl)cc1 | 0.3
CCCOc1ccc(C(=O)N2CC3(CC(c4cccc(NC(=O)[C@@H]5CCC(=O)N5)c4)=NO3)C[C@H]2C(=O)NC2(C(N)=O)CC2)cc1 (stereo partly drawn) | 1.2
COC(=O)c1cc(=O)n(CCc2ccc(OC)cc2)c(=Nc2ccc(F)c(Cl)c2)s1 | i
CCn1c(-c2ccc(OC)c(OC)c2)n[nH]c1=S | i
Cc1ccc(N2CCN(C3=NC(=O)/C(=C\c4cccs4)S3)CC2)cc1 | i
O=C1C2C3c4ccccc4C(c4ccccc43)[C@@H]2c2nc3ccccc3n21 (stereo partly drawn) | i
O=C(CCNc1cccc(Cl)c1)c1ccco1 | 4.8
Cc1ccc(-n2ncc3c(=O)[nH]c(SCC(=O)N4CCCCC4)nc32)cc1 | 1.5
CN(Cc1ccccc1)C(=O)c1ccccc1NC(=O)c1ccccc1 | 0.5
Cc1cccc(OCCSc2cc(C)nc(N)n2)c1 | i
CCCC(c1nnnn1Cc1ccc(F)cc1)N1CCN(C2CCCCC2)CC1 (stereo not drawn) | i
O=C(CCN1C(=O)c2ccccc2C1=O)Nc1ccc(F)cc1F | 0.7
Cc1cc(CN(C)C)c(OC(=O)N(C)C)cc1C | i
CC1CCCN(S(=O)(=O)c2ccc(NC(=O)CN3CCN(C)CC3)cc2)C1 (stereo not drawn) | i
CCC(=O)Nc1ccc(OC)cc1OC | i
CC(C)c1nnc(NC(=O)CCCCCN2C(=O)C3C4C=CC(C4)C3C2=O)s1 (stereo not drawn) | 1.6
COc1ccc(-n2cnnc2SCC(=O)N(C)C2CCS(=O)(=O)C2)cc1 (stereo not drawn) | i
O=C(CS(=O)(=O)c1cccc(Cl)c1)Nc1ccccc1Cl | i
CCOC(=O)CC1C(=O)NCCN1C(=O)NC1CCCCC1 (stereo not drawn) | 0.1

(continued)
SMILES | H5N1 CPE
CCCCN1C2=NCCCN2c2cc(C)c(C)cc21 | i
Cc1noc(C)c1COC(=O)c1ccc2c(c1)OCO2 | i
CCOC(=O)C1CCCN(S(=O)(=O)c2ccc(Br)s2)C1 (stereo not drawn) | 0.5
CNc1ncc(C(=O)c2ccc(Cl)c(Cl)c2)s1 | i
Cc1nnc(NCc2ccncc2)c2ccccc12 | i
C/C(=N/NC(=O)c1ccc(Cl)s1)c1ccc(NC(=O)COc2ccc(Cl)cc2)cc1 | i
CCC(C)NC(=O)CSc1ccc(NC(C)=O)cc1 (stereo not drawn) | i
Cc1ccc(C(=O)c2c(NC(=O)c3ccccc3)sc(C)c2C)cc1 | i
COc1ccc(NC(=O)N2CCN(c3cccc(C(F)(F)F)c3)CC2)cc1OC | 1.4
Cc1ccc(NC(=O)NNC(=O)C2CC(c3cccnc3)=NO2)cc1 (stereo not drawn) | i
Cc1cc(CN2CCOCC2)c(O)c(C2(C)CCCCC2)c1 | i
O=c1c2c([nH]c3ccccc13)CCCCCC2 | 0.8
COc1cc(OC)c(C2C(C#N)=C(N)OC3=C2C(=O)CC(C)(C)C3)cc1OC (stereo not drawn) | i
O=C(Nc1nc(-c2nc3ccccc3s2)cs1)C1CC1 | 0.1
O=C(N1CCN(c2ccc(F)cc2)CC1)C12CC3CC(CC(C3)C1)C2 | 1.7
COc1ccc(Nc2nc3ccccc3nc2C)cc1 | i
CCn1c(-c2cc(-c3cc(OC)ccc3OC)nc3ccccc23)n[nH]c1=S | 0.9
Cc1nc(NCCN2CCOCC2)c2nnn(Cc3ccccc3Cl)c2n1 | i
CCSc1nnc(NC(=O)c2nc(-c3ccccc3)n(-c3ccccc3)n2)s1 | i
CCN(CC)C(=O)C1CCC(C)(C(=O)O)C1(C)C (stereo not drawn) | i
CCSc1nnc([C@@H](N)Cc2ccccc2)o1 | i
COc1ccccc1CNC(=O)CCNC(=O)Cn1cnc2ccccc2c1=O | i
C=CCn1c(SCC(=O)NC2CCS(=O)(=O)C2)nc2sc(CC)cc2c1=O (stereo not drawn) | 0.6
COc1cc(/C=N/n2c(C)nnc2C)cc(OC)c1OC | 0.2
CS(=O)(=O)Nc1ccccc1C(=O)Nc1cccc(Cl)c1 | i

Further results follow.
SMILES | H5N1 CPE
CC(=O)N(c1ccc(Cl)cc1)c1c[nH]c2ccccc12 | i
O=C1c2cnc3nc(SCc4ccc(Cl)cc4)nn3c2CC2c3ccccc3CCN12 (stereo not drawn) | 2.6
CCCCCCn1c(CN2CCCC(C)C2)nc2c1c(=O)n(C)c(=O)n2C (stereo not drawn) | i
CC(=O)Nc1ccc(S(=O)(=O)N2CCNC(=O)CC2)cc1 | i
CCCc1cc(=O)[nH]c(SCC(=O)c2cc(C)n(C)c2C)n1 | i
CC(C)CNC(=O)c1c(N)n(/N=C/c2ccccn2)c2nc3ccccc3nc12 | 0.8
COc1cccc(NC(=O)N(Cc2cc3cc(C)cc(C)c3[nH]c2=O)CC2COCCO2)c1 (stereo not drawn) | i
CCC(=O)Nc1c(C)cc(C)cc1Cl | 0.3
CCN(CC)c1ccc(-c2nn3c(-c4n[nH]c5c4CCC5)nnc3s2)cc1 | 3.1
c1ccc(-n2nnnc2N2CCOCC2)cc1 | i
Cc1c(Cl)cnc(NC(=O)CSc2nnc(C)n2Cc2ccccc2)c1Cl | 0.7
Cc1ccccc1N=C1NC(=O)CS1 | 0.5
CCOC(=O)c1nnc(-c2ccccc2)o1 | 0.3
CC1Cc2cc(/C(O)=C3/C(=O)C(=O)N(CC4CCCO4)C3c3ccco3)ccc2O1 (stereo not drawn) | 0.7
CC(=O)N1CCc2cc(S(=O)(=O)NCCC(=O)N3CCN(Cc4ccccc4)CC3)ccc21 | 3.6
COc1cccc(C(=O)/C=C/Nc2cc(C)ccc2O)c1 | 15
CCOc1ccc(S(=O)(=O)N2CCN(c3ccc(OC)cc3)CC2)c2cccnc12 | 2.3
Cc1ccccc1NC(=O)CSc1nc(COc2ccccc2)nc2ccccc12 | i
COC(=O)C(NC(C)=O)(Nc1nc2ccc(C)cc2s1)C(F)(F)F (stereo not drawn) | 0.5
O=C(NCc1ccco1)Oc1ccccc1 | i
C/C(=N\NC(=O)c1ccccc1)c1ccc2c(c1)OCO2 | 0.4
Cn1nnnc1SCCOc1ccc(C#N)cc1 | i
CCOCC(=O)Nc1ccc2c(c1)OCCO2 | i
CCCN(CCO)Cc1cccc(Cl)c1 | 0.2
O=c1c2cc(Br)ccc2nc2n1CCCCC2 | 1.4

Single values from the list.
C/C(=N\NC(=O)c1ccccc1)c1ccc2c(c1)OCO2 | H5N1 CPE = 0.4
O=C1c2cnc3nc(SCc4ccc(Cl)cc4)nn3c2CC2c3ccccc3CCN12 (stereo not drawn) | H5N1 CPE = 2.6

A section taken from the entries so far, for reference:
SMILES | H5N1 CPE
COc1cccc(C(=O)/C=C/Nc2cc(C)ccc2O)c1 | 15
CCOc1ccc(S(=O)(=O)N2CCN(c3ccc(OC)cc3)CC2)c2cccnc12 | 2.3
Cc1ccccc1NC(=O)CSc1nc(COc2ccccc2)nc2ccccc12 | i
COC(=O)C(NC(C)=O)(Nc1nc2ccc(C)cc2s1)C(F)(F)F (stereo not drawn) | 0.5
O=C(NCc1ccco1)Oc1ccccc1 | i
C/C(=N\NC(=O)c1ccccc1)c1ccc2c(c1)OCO2 | 0.4

Structures above with a nitro group on carbon, in the order listed:
SMILES | H5N1 CPE
O=C(COc1ccc([N+](=O)[O-])cc1)Nc1ccc(C(=O)NCc2cccnc2)cc1 | 1.6
Cc1cc([N+](=O)[O-])ccc1NCc1cccc([N+](=O)[O-])c1 | i

(cont.)
SMILES | H5N1 CPE
CCNC(=O)NC(=O)C(C)SCc1ccccc1C (stereo not drawn) | i
O=C(N1CCOCC1)C12CCC3CC(CC(C3)C1)C2 | 0.5
COc1cc(NS(=O)(=O)c2ccc(NC(=O)C3CCCO3)cc2)nc(OC)n1 (stereo not drawn) | i
CCc1ccccc1-n1c(-c2ccncc2)n[nH]c1=S | i
c1nnc(NC2=NCCC2)s1 | i
Cc1ccc(/C=C/C(O)=C2/C(=O)N(C)C3(C)CC2c2ccccc2O3)cc1 (stereo not drawn) | 4.0
O=C(NCCN1CCCCC1)c1ccc(=O)oc1 | i
CCCn1c(=O)c(C(=O)Nc2ccccc2C(=O)OCC)c(O)c2ccccc21 | i
COc1cc(C2CC(=O)Nc3ccccc3S2)cc(OC)c1OC (stereo not drawn) | i
O=C(CC(c1ccccc1)c1ccccc1)NCCO | 0.1
